# Compound activity from PubChem BioAssay.
# TRPML1 inh: qHTS for Inhibitors of the Human Mucolipin Transient Receptor Potential 1 (TRPML1) | Mucolipin-1 (Homo sapiens), Q9GZU1 | TRPML1-inducible cells, Ca2+ dye fluorescence, FDSS; hits give low values; inhibition of EC80 agonist-evoked calcium signal | activity change, negative = inhibition, % (test concentration not listed) | actives 0.02% (n = 390,000); in the data active means activity change below about -50%; inconclusive means about -30% to -50%; inactive means above about -30%;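 note: stimulus is agonist 54-4 at its EC80 concentration; % is set by controls: 0 for no effect and ±100 for the full control effect; compound concentration not given in the record; the text of the record puts the active cut at -80%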
# Target sequence (Q9GZU1 whole entry, looked up): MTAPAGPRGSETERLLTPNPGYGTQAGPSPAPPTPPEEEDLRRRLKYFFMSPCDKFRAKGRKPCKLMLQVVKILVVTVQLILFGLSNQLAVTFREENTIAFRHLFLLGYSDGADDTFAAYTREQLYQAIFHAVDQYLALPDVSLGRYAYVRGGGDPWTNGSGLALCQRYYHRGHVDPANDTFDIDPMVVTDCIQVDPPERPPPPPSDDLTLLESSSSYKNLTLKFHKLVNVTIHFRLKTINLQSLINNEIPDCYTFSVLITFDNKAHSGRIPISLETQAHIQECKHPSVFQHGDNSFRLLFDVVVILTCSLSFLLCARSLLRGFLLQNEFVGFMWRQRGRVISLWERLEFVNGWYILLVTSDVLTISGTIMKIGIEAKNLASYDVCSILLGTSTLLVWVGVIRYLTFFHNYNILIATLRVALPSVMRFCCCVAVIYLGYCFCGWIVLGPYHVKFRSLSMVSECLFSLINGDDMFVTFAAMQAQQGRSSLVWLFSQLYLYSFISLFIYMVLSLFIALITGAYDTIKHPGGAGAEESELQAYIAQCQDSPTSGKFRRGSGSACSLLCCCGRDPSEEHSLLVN
#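 Tet-induced TRPML1-DL cells loaded with Ca8 no-wash calcium dye were read kinetically on FDSS. Compound addition was followed by EC80 agonist 54-4 (4 uM final); inhibition was read over 110 s.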
# D2 agonist: Beta-Arrestin HTS for Positive Allosteric Modulators of the Human D2 Dopamine Receptor: Agonists; D(2) dopamine receptor (Homo sapiens), P14416; DiscoveRx PathHunter D2 beta-arrestin, luminescence, 90 min; 100% = 57 uM dopamine signal; activation, % (concentration not given with the values); actives 0.084% (n = 360,000); in the data active = activation above about 40%; inconclusive = about 15% to 40%; inactive = below about 15%; note: compound concentration not given in the record; the text of the record calls up to 30% inactive
# Target sequence (P14416 whole entry, looked up): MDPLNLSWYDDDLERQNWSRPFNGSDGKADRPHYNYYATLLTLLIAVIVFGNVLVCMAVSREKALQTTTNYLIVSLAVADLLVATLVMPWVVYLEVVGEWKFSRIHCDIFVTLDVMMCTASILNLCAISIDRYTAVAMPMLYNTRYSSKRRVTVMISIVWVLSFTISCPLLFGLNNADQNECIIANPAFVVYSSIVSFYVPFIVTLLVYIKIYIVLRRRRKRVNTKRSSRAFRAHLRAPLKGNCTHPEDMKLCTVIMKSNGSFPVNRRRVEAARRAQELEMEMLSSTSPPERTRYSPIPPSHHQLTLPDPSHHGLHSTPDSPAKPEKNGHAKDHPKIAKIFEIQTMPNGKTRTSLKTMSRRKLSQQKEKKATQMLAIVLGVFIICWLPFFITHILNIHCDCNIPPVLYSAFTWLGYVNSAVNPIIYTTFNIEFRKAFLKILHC
#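 Agonist mode: compounds alone added to overnight-plated D2 PathHunter cells for 90 min at 37 C, with 57 uM final dopamine (EC100) defining full response. Beta-arrestin recruitment detected by chemiluminescent reagent, read after 1 h at ambient temperature.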
# PINK1 expr mod: A Quantitative High throughput Screen to Identify Chemical Modulators of PINK1 Expression. PINK1 immunofluorescence, high-content cytometry, 24 h. Potency, µM (series often up to 76.6 µM), without a hit: at the highest dose activation (PINK1 increase), most hits filed as activators. actives 0.2% (n = 410,000). AID 624263, 2012; active = well fitted activation curve with a large enough effect; inconclusive = small, poorly fitted or top-dose-only effect; inactive = flat fitted curve, though single readings scatter; cell line not stated here;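 note: potency is the fitted concentration of half-maximal effect; % of control where 0% means no effect; nearly all actives have a fitted effect of over 65% in size; a mitochondrial uncoupler was the plate control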
#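 PINK1 protein level read as immunofluorescence by microplate cytometer in a fixed, stained stable cell line after 24 h exposure to five compound concentrations, with CCCP as control.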
# TRPML1 ag: qHTS for Agonists of the Human Mucolipin Transient Receptor Potential 1 (TRPML1); TRPML1-expressing cells, Ca2+ dye fluorescence, FDSS; host cell line not named in the record; reference of the full effect not given here; Mucolipin-1 (Homo sapiens), Q9GZU1; activation, % (concentration not given with the values); actives 0.12% (n = 410,000); in the data active = activation above about 50%; inconclusive = about 30% to 50%; inactive = below about 30%; note: 0% is about no effect; the text of the record puts the active cut at 80%
#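 Tetracycline-induced TRPML1-DL cells are seeded and incubated overnight before loading with a no-wash Ca2+ dye and quencher. Agonist activity is taken from the 110 s fluorescence read following compound pin-transfer on an FDSS, before EC80 54-4 challenge.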
# CtBP-E1A blk: qHTS Assay for Inhibitors of the CtBP/E1A Interaction | AlphaScreen GST-E1A/His-CtBP binding, 1536-well; hits give low values; control for the full effect not named in the record | activity change, % (concentration not given with the values) | actives 0.49% (n = 340,000) | AID 651724, 2012; in the data active means activity change below about -65%; inconclusive means about -30% to -65%; inactive means above about -30%; note: % is set by controls: 0 for no effect and ±100 for the full control effect
#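 In 5 uL wells, 23 nL compound meets equimolar GST-E1A and His-CtBP (5X stock 125 nM each) for 2 h, 37 °C. Beads (5X, 50 ug/mL) then 1 h, 37 °C, dark.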
# Six1-Eya2 inh: qHTS Assay for Inhibitors of the Six1/Eya2 Interaction; Homeobox protein SIX1 (Homo sapiens) + Protein phosphatase EYA2 (Homo sapiens), …; AlphaScreen GST-Six1/His-Eya2 binding, biochemical; hits give low values; control for the full effect not named in the record; activity change, % (test concentration not listed); actives 0.56% (n = 360,000); in the data active = activity change below about -65%; inconclusive = about -30% to -65%; inactive = above about -30%; note: % is set by controls: 0 for no effect and ±100 for the full control effect; compound concentration not given in the record
#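 Homogeneous AlphaScreen proximity assay pairing GST-Six1 with His-tagged Eya2 (added as 5X mix: 250 nM and 500 nM) in 50 mM Tris pH 8.0, 300 mM NaCl, 1 mM TCEP. Glutathione donor and nickel acceptor beads; 1 h, 37 °C, dark.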
# An asterisk follows results filed as active; ? = inconclusive; . = no result given; & = joins results of further samples; [ ] = another dose, or the depositor's remark.
SMILES,TRPML1 inh,D2 agonist,PINK1 expr mod,TRPML1 ag,CtBP-E1A blk,Six1-Eya2 inh
Cc1cc(C)c2nc(N3CCCC(C(=O)NCc4ccccc4F)C3)sc2c1 (stereo not drawn),-7.8,.,-1.4%,-0.2,.,.
CC(C)(C)NCc1cc(Cl)ccc1OCc1ccccc1F,4.9,-18.4,2.3%,-0.5,1.3,8.8
Cc1ccc2nc(SCC(=O)Nc3cccc(S(N)(=O)=O)c3)[nH]c2c1,-2.3,-2.4,-0.1%,0.0,3.2,-3.5
O=C(NCc1cccs1)C1CCC(CNS(=O)(=O)c2ccc(Br)s2)CC1 (stereo not drawn),-15.7,-0.2,8.5%,-1.0,9.1,1.1
COc1ccc(N=Cc2cc(Cl)ccc2O)cc1Cl,6.5,1.0,1.2%,0.3,-11.0,9.1
CC1(C(=O)NCC2CC2)C=CC2(CCCCC2)N1C(=O)c1ccccc1 (stereo not drawn),-2.1,-1.4,0.4%,-0.9,6.7,6.6
CCCN(CC1CC1)C(=O)COC(=O)c1[nH]c(C)c(C(=O)OCC)c1C,-10.8,-2.5,1.0%[38.3 µM],2.6,-5.5,-0.5
COc1ccc(NC2SC(=O)N(C)C2=O)cc1 (stereo not drawn),.,-9.4,1.2%,.,1.2,7.2
CCOc1ccccc1NC(=O)CSc1nc2c(oc3ccccc32)c(=O)n1-c1ccc(C)c(C)c1,32.6,.,-0.1%,0.2,.,.
COc1ccc(/C=N/OCC(=O)NCC(C)C)c(OC)c1,-5.7,0.5,0.8%,0.0,3.4,3.9
CCOC(=O)c1cnc2ccccc2c1Nc1ccc(N2CCOCC2)cc1,4.1,.,-1.1%,-1.1,.,.
O=C(Nc1ccc(S(=O)(=O)N2CCOCC2)cc1)C1CCN(S(=O)(=O)c2ccc(F)cc2)CC1,-4.7,-2.4,-0.1%,0.2,-1.6,-7.4
COc1ccc(-n2nc3ccc(NC(=O)c4cc5ccccc5o4)cc3n2)cc1Cl,-4.7,.,0.5%,0.1,.,.
CN1CCN(C(=O)c2cc3c(=O)n4ccccc4nc3s2)CC1,-8.6,-0.3,-0.8%,-0.5,0.0,0.1
Cc1ccc2c(c1)sc(=NC(=O)c1cccs1)n2C,-15.5,0.9,-0.7%,2.3,-17.5,14.3

# The closing three entries of the part above open the next one:
SMILES,TRPML1 inh,D2 agonist,PINK1 expr mod,TRPML1 ag,CtBP-E1A blk,Six1-Eya2 inh
COc1ccc(-n2nc3ccc(NC(=O)c4cc5ccccc5o4)cc3n2)cc1Cl,-4.7,.,0.5%,0.1,.,.
CN1CCN(C(=O)c2cc3c(=O)n4ccccc4nc3s2)CC1,-8.6,-0.3,-0.8%,-0.5,0.0,0.1
Cc1ccc2c(c1)sc(=NC(=O)c1cccs1)n2C,-15.5,0.9,-0.7%,2.3,-17.5,14.3
O=C(O)CSc1c2c(nc3cc(C(=O)Nc4cccc(C(F)(F)F)c4)ccc13)CCCC2,14.8,-4.3,0.0%,-0.5,-0.4,0.7
CCOC(=O)C1=C(C)SC2=NS(=O)(=O)CCN21,-6.3,-0.9,?,0.4,5.7,5.4
COc1cc(Cl)c(C)cc1NC(=O)NC1COc2ccccc2C1 (stereo not drawn),19.2,.,0.7%,0.9,.,.
O=C(/C=C/c1ccccc1[N+](=O)[O-])N1CCN(c2ccc(F)cc2)CC1,17.4,-0.1,1.5%,0.9,1.0,-5.2
CCN(CC)C(=O)c1cc2sc3ccccc3c2s1,8.7,-3.4,0.6%,2.0,3.7,11.9
COc1cc2c(cc1OC)C(c1ccccc1)N(C(=O)CCl)CC2 (stereo not drawn),-5.2,-4.4,-2.0%,-0.7,2.4,0.2
O=C(CSc1nncs1)NC(=O)NCc1ccccc1,3.4,-0.8,2.7%[38.3 µM],-0.4,7.7,-2.6
CCOc1ccc(NS(=O)(=O)c2cc3c(cc2C)N(C)CCO3)cc1,15.3,-5.3,6.4%,1.3,-23.5,-9.5
CC(=O)Oc1ccccc1C(=O)NC(C)CCc1ccccc1 (stereo not drawn),25.9,-1.8,?,0.8,-0.1,5.5
CC(CC(=O)NC1CCCCC1)S(=O)(=O)c1ccc2c(c1)NC(=O)CO2 (stereo not drawn),-7.0,-1.2,0.4%,-0.8,0.1,2.6
O=C(NC(=S)NCCC1=CCCCC1)c1cccnc1,-18.1,-0.2,1.3%,1.6,-8.1,-5.6
Cc1c(Cl)c([N+](=O)[O-])nn1CC(=O)NC1CCCCC1,-22.4,-4.1,2.0%,0.7,2.7,5.8
O=C1C(CCCNC(=S)NCc2ccccc2)NC(=S)N1Cc1ccccc1 (stereo not drawn),-1.4,-6.1,1.2%,-1.3,.,-15.9
C=CCN1C=C2C(=O)C(C)(OC(=O)c3ccc(OC)cc3)C(=O)C(c3ccco3)=C2C=C1CCCC (stereo not drawn),2.6,4.5,2.8%,3.7,-15.3,-5.1
COc1ccc(OC)c(S(=O)(=O)Nc2ccc3c(c2)OCCO3)c1,7.0,-4.6,-0.4%,-0.9,-5.5,-0.9
O=C(OCc1cn(Cc2ccccc2)nn1)c1ccccc1,-5.1,-1.4,5.8%,1.7,.,14.8
CNC(=O)c1cc(S(=O)(=O)Nc2ccc3c(c2)OCCO3)ccc1C,27.7,3.5,0.9%,0.9,3.2,-18.1
Cc1onc(-c2ccccc2Cl)c1C(=O)NNC(=O)c1ccc(F)cc1,-5.5,-0.7,1.1%,-0.2,0.6,-0.6
C=CCn1c2ccccc2c2nn(C)c(=S)nc21,3.8,2.4,1.3%,1.0,0.3,-2.4
Brc1ccc2nc(-c3ccccc3)c(Cc3ccsc3)n2c1,-17.6,-1.8,13.0%,0.9,0.3,-3.2
O=C1C2CCCCN2C(=O)N1CCCN1CCN(c2ccc(F)cc2)CC1 (stereo not drawn),1.3,-1.2,0.6%,-0.3,-1.2,-2.6
CCOC(=O)c1ccc(S(=O)(=O)N2CCC(C(=O)OCC)CC2)cc1,21.4,-2.5,?,0.3,-2.6,5.9
CCCc1cc(=O)oc2cc(C)cc(OCC(=O)Nc3ccc(S(N)(=O)=O)cc3)c12,38.4,-5.7,1.0%,0.9,.,4.1
CC(=O)Nc1cccc(/C(C)=N/NC(=O)c2ccc(NS(=O)(=O)c3cccs3)cc2)c1,-14.4,-3.0,-0.7%,1.7,-11.3,0.0
COc1ccc(N2CCN(C(=O)C(CCSC)N=C3NS(=O)(=O)c4ccccc43)CC2)cc1 (stereo not drawn),11.6,-2.6,-2.8%,2.3,-0.3,-6.2
O=C(N/N=C/c1ccncc1)c1cc([N+](=O)[O-])cc([N+](=O)[O-])c1,-8.6,3.0,-2.0%,0.6,0.7,5.3
Cc1cc(SCc2ccccc2Cl)nc(=O)[nH]1,-6.2,2.3,1.1%,0.5,.,0.2
CCc1ccc2c(c1)NC(=O)C2(C)Cc1cccc(F)c1 (stereo not drawn),.,3.8,3.5%,0.8,0.0,10.6
COc1ccccc1CN(C)C(=O)c1cnc(C)cn1,5.9,-3.7,2.4%,1.4,.,10.8
CC(C)(C)C(=O)OCc1nc(-c2ccc(F)cc2)cs1,59.6,-2.0,11.4%,3.7,1.8,0.0
O=C(Nc1cccc2cccnc12)c1cccc2ccccc12,-4.9&9.6,0.2,4.1%,-0.7&-0.5,13.7,12.0
Cc1cccc(-c2oc(C)c(C)[n+]2[O-])c1,1.4,-0.3,3.9%[38.3 µM],-0.1,2.2,1.2
CSc1nc(N2CCN(c3ccccc3)CC2)cc(N2CCN(c3ccccc3)CC2)n1,26.2,-1.3,0.6%,-0.8,-3.1,-1.3
CC(C)[C@H](NC(=O)N1CCn2c1nc1ccccc12)C(=O)NC1CC1,9.3,-1.0,-0.6%,5.5,.,2.3
Clc1cccc(Cl)c1CNC1CCCC1,-8.2,0.0,2.8%[38.3 µM],1.5,9.7,4.2
COc1ccc(/C(C)=N\NS(C)(=O)=O)c(OC)c1,14.7,-1.8,-0.2%,1.1,3.6,1.2
O=S1(=O)CC(N2CCCCC2)CN1Cc1ccccc1 (stereo not drawn),5.4,-4.2,0.2%,-0.3,0.2,2.6
CCOC(=O)CN1CC23C=CC(O2)C(C(=O)NCc2ccc(C)cc2)C3C1=O (stereo not drawn),13.3,-3.9,-0.4%,-0.4,1.8,1.9
CCOc1ccc(NC(=S)N2CCC(NC(=O)C3CCCCC3)CC2)cc1,4.0,-4.5,2.1%,-0.5,-4.4,0.7
Cc1ccc(C(=O)Nc2ccc(Cl)cn2)cc1,42.9,-1.1,13.3%[38.3 µM],4.8,5.4,10.5
COC(=O)CCN(C1CCCCC1)S(=O)(=O)c1ccc(S(=O)(=O)N2CCCCC2)cc1,-21.9,0.5,.,0.3,42.8,21.0
COc1ccc(CNC(=O)c2ccc(Cl)c(NC3=NC4CS(=O)(=O)CC4S3)c2)cc1 (stereo not drawn),-4.3,-6.1,0.4%,-0.4,-17.7,6.3
CCc1ccc(NC(=O)Nc2c(C)n(C)n(-c3ccccc3)c2=O)cc1,-2.4,-3.7,-0.1%,-0.9,3.0,-2.4
COc1ccc(OC)c(NC(=O)CSc2c3c(nc4ccccc24)CCCC3)c1,10.5,.,1.0%,0.5,.,.
Cc1ccccc1C(=O)N1CCC(C(=O)Nc2sccc2C(N)=O)CC1,-2.4,0.3,2.3%,0.1,0.3,0.0
CC(=O)Oc1cccc(C(=O)Nc2ccc3c(c2)C(=O)N(CC2CCCO2)C3=O)c1 (stereo not drawn),5.2,1.0,4.8%,1.2,-0.8,11.3
Cc1cc(N2CCCC2)nc(-c2ccccc2O)n1,-1.4,-3.2,0.8%,0.2,9.4,0.8
CCc1ccc(NC(=O)c2cc3c([nH]c2=O)CC(C)(C)CC3=O)cc1,5.2,.,2.3%,1.6,.,.
Oc1ccccc1N1CCN(c2ncnc3scc(-c4ccc(F)cc4)c23)CC1,75.5,1.7,-0.2%,4.3,-7.4,-18.8
CC1CCCN(C(=O)COC(=O)C2CCN(S(=O)(=O)c3ccc4c(c3)OCCO4)CC2)C1 (stereo not drawn),-8.8,-6.9,-2.7%,0.5,0.0,3.1
CCOc1ccc(NCC(=O)c2ccc(C)cc2)cc1,-12.5,-10.0,2.0%,-1.2,-12.4,10.8
O=c1c(F)cn(C2CCCO2)c(=O)n1Cc1c(F)cccc1Cl (stereo not drawn),-7.7,-0.3,-0.4%,0.2,-3.5,5.1

# Compound profiles, as listed above. Order of screens: TRPML1 inh, D2 agonist, PINK1 expr mod, TRPML1 ag, CtBP-E1A blk, Six1-Eya2 inh
# CC1CCCN(C(=O)COC(=O)C2CCN(S(=O)(=O)c3ccc4c(c3)OCCO4)CC2)C1 (stereo not drawn) in the list: -8.8, -6.9, -2.7%, 0.5, 0.0, 3.1
# CCc1ccc(NC(=O)c2cc3c([nH]c2=O)CC(C)(C)CC3=O)cc1 in the list: 5.2, ., 2.3%, 1.6, ., .
